CSC inhib – cancer stem cell viability inhibitors, primary screen, luminescence; inhibition, % at 7.5 µM; cancer stem cell-like cells viability; 300,000 tested, 1.1% active;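 active = mean at 75% or more and at least half the replicates too; tested in HMLE shEcad cells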;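 also: 0% = median of negative and 100% = median of positive control wells; the first replicate is given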
MT1-MMP act inh – blockers of MT1-MMP proenzyme processing, primary screen, HT1080 RFP-PRO-GFP cells, GFP/RFP fluorescence | AID 651647, 2012 | GFP/RFP ratio fluorescence, overnight; percent of plate control window, DMSO zero | 360,000 tested, 0.061% active | GFP/RFP ratio change, % at 20 µM | Matrix metalloproteinase-14 (Homo sapiens), P50281;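 active = GFP/RFP ratio change of at least 30% with cell ATP level not reduced by more than half and red fluorescence within 50% of control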; also: strong numbers were not always called active
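Material: RFP-PRO-GFP reporter HT1080 cells. Dosing: single-point 20 µM compound, 1% DMSO. Controls: DMSO and RFP-L50D-GFP cell wells. Timing: cells overnight before dosing, compound overnight, 37 °C, 5% CO2. Measure: GFP/RFP fluorescence ratio.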
Yeast UUG start – modulators of yeast start codon fidelity, primary screen, whole organism, S. cerevisiae, single point, plate reader | S. cerevisiae UUG-firefly luciferase reporter, luminescence/redox ratio | activity score, % at 18.7 µM | 350,000 tested, 0.13% active | AID 602363, 2012;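 active = replicate mean at a twofold rise or more, about +100% in these data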;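 also: firefly luciferase made from a UUG start codon reports start codon fidelity; reporter light over untreated wells divided by growth signal over untreated wells; some hits fall short of that in this replicate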
Env fusion inh – inhibitors of HIV-1 Env-driven cell-cell fusion, primary screen, HeLa-JRFL effector, CEM21 target cells, luciferase; inhibition, % at 12.3 µM; 360,000 tested, 1.1% active; AID 651610, 2012;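 active = mean replicate inhibition score of at least 50 and every replicate individually at or above 50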;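 also: 0% = plate neutral controls and 100% = maraviroc near 300 nM; one replicate is shown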
eIF4H FP inh – human eIF4H binding inhibitors, primary screen, translation initiation inhibitor project, biochemical, uHTS, fluorescence polarization | Eukaryotic translation initiation factor 4H (Homo sapiens), Q15056 | eIF4H fluorescence polarization binding assay | inhibition, % at 35 µM | 290,000 tested, 0.94% active;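 active = 50% or more with normal probe brightness, or confirmed in later tests; about a fifth of its hits are not listed in these tables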;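 also: calls also rest on retests at 20 µM and on dose response follow-up; 0% = protein and probe with vehicle and 100% = probe without protein; strong numbers were not always called active; many hits fall short of the cut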
Rce1 inh – yeast Rce1p protease inhibitors, primary screen, biochemical, fluorescence, cell-free homogeneous. CAAX prenyl protease 2 (Saccharomyces cerevisiae (strain ATCC 204508 / S288c)), Q03530. AID 2563, 2010. yeast membranes, quenched prenylated peptide cleavage fluorescence. 290,000 tested, 0.27% active. calls only;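 active = fall in fluorescence gain of 50% or more versus controls, with final raw signal at or below 3038400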;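 also: plate controls were neutral control wells for no effect and wells lacking membranes for full effect; tested at 10 µM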
Target sequence (Q03530 whole entry, looked up): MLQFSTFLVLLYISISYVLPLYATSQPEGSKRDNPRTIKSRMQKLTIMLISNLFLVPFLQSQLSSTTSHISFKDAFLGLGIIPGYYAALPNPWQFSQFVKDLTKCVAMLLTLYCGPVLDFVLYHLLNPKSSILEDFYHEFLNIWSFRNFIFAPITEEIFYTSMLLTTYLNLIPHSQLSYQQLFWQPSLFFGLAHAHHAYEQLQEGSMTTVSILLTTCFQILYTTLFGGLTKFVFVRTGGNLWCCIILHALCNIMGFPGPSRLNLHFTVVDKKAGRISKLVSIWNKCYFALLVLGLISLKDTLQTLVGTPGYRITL
PABP FP inh – PABP poly(A) RNA binding inhibitors, primary screen, biochemical, fluorescence polarization, uHTS. Polyadenylate-binding protein 1 (Homo sapiens), P11940. inhibition, % at 35 µM. 290,000 tested, 1% active. AID 2014, 2009;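 active = 50% or more with normal probe brightness, or confirmed in later tests; about a fifth of its hits are not listed in these tables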;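 also: calls also rest on retests at 20 µM and on dose response follow-up; controls were probe without protein and protein plus probe with vehicle; some compounds called inactive have numbers as strong as hits; many hits fall short of the cut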
eIF4H FP inh retest – second read-out of eIF4H FP inh, no call of its own (marks repeat the call); inhibition, %; compound at 20 µM; confirmation average;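 mean of two retest wells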
PABP FP inh retest – also measured in PABP FP inh; calls as there; inhibition, %; compound at 20 µM; confirmation repeats;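 mean of two retest wells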
MT1-MMP act inh RFP – also measured in MT1-MMP act inh; calls as there; RFP signal change, %; measured here: RFP expression control read;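 0 = vehicle wells; hits needed this value within 50% of zero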
Starred values were filed as active, the others as inactive; i = inactive; . = not tested or not shown; + = active, no number. Only part of the results is shown; rates above refer to the full screens.

Preview:
SMILES | CSC inhib | MT1-MMP act inh | MT1-MMP act inh RFP | Yeast UUG start | Env fusion inh | eIF4H FP inh | Rce1 inh | PABP FP inh | others
Cn1c(=O)c2c(nc(SCCN3CCOCC3)n2Cc2ccc(F)cc2)n(C)c1=O | 2 | -1 | 1 | -9 | . | -4 | i | -3
Cc1ccc2c(=O)cc(C(=O)NCc3ccccc3)oc2c1C | -21 | -8 | -3 | -21 | 25 | -9 | i | -6
CCN(CC(=O)Nc1c(F)cccc1F)C(=O)CCCc1cccs1 | -6 | 9 | -2 | -14 | . | . | . | .
COc1cc(C(=O)NNC(=S)Nc2ccc(S(N)(=O)=O)cc2)cc(OC)c1OC | -19 | 3 | 5 | . | -2 | 0 | i | -17

Main list, repeating the preview:
SMILES | CSC inhib | MT1-MMP act inh | MT1-MMP act inh RFP | Yeast UUG start | Env fusion inh | eIF4H FP inh | Rce1 inh | PABP FP inh | others
Cn1c(=O)c2c(nc(SCCN3CCOCC3)n2Cc2ccc(F)cc2)n(C)c1=O | 2 | -1 | 1 | -9 | . | -4 | i | -3
Cc1ccc2c(=O)cc(C(=O)NCc3ccccc3)oc2c1C | -21 | -8 | -3 | -21 | 25 | -9 | i | -6
CCN(CC(=O)Nc1c(F)cccc1F)C(=O)CCCc1cccs1 | -6 | 9 | -2 | -14 | . | . | . | .
COc1cc(C(=O)NNC(=S)Nc2ccc(S(N)(=O)=O)cc2)cc(OC)c1OC | -19 | 3 | 5 | . | -2 | 0 | i | -17
O=C(CCc1nc(-c2ccccc2F)no1)NC1CCCCC1 | -9 | 0 | 4 | -7 | . | 1 | i | 2
Cc1ccc(S(=O)(=O)N(C)CCCC(=O)NC(C)(C)C)cc1 | 2 | -4 | -1 | 1 | -7 | 3 | i | 5
Cc1cc(C)c2nc(SCC(=O)Nc3cc(C)on3)c(C#N)cc2c1 | -9 | -27 | -2 | -16 | -4 | 45 | . | 18
O=C(NCc1nnnn1-c1ccc(F)c(F)c1)c1ccc(S(=O)(=O)N2CCOCC2)cc1 | 9 | 2 | -1 | 5 | -2 | . | i | .
S=C(Nc1cc(Cl)cc(Cl)c1)N1CCCC1 | -13 | 2 | 0 | -18 | -4 | 0 | i | 1
COc1cccc(-c2nc(-c3ccccn3)no2)c1OC | . | -8 | -2 | -14 | -97 | 11 | i | -3
COC(C(=O)Nc1ccc(Cl)cc1C)c1ccccc1 (stereo unspecified) | 7 | 1 | 0 | . | -15 | 0 | i | -1
CCN(CC)c1ccc(NC(=O)CSc2nnc(N)s2)cc1C | . | 1 | 0 | -15 | -40 | -4 | . | 4
O=C1Nc2ccc(Br)cc2/C1=C/C1CC=CCC1 (stereo unspecified) | 33 | -6 | -6 | . | 8 | -13 | i | 0
Cn1nc(-c2ccc(N3CCOCC3)c(NS(=O)(=O)c3ccc(Cl)cc3)c2)c2ccccc2c1=O | 47 | 8 | 1 | 2 | . | -6 | . | -2
Cc1ccc(NC(=O)C(C)OC(=O)CSc2ccccc2)cc1 (stereo unspecified) | -10 | -2 | 6 | -5 | -100 | . | . | .
COc1ccccc1NC(=O)CC1CCCC1 | -9 | 0 | -3 | -26 | -2 | -11 | i | 12
Cn1c(=O)c2c(nc(NCc3ccco3)n2CC(O)CO)n(C)c1=O (stereo unspecified) | -2 | 1 | 3 | . | 3 | -4 | i | 1
CCOc1ccc(Cn2nnc(C(=O)Nc3cc(OC)cc(OC)c3)c2N)cc1 | 0 | 0 | -1 | -15 | -345 | 11 | i | -1
CCOn1c(SC(C)C)nc2ccccc2c1=O | -11 | 1 | 3 | -10 | 0 | -1 | i | -4
CC(C)c1ccc(CN2CC(C(=O)Nc3ccccc3)CC2=O)cc1 (stereo unspecified) | -11 | 1 | 4 | -3 | 3 | 2 | i | -10
COCCN(Cc1ccco1)C(=O)C1CCCN(c2ncnc3c2nc2n3CCCCC2)C1 (stereo unspecified) | 0 | 0 | -2 | 9 | 0 | -2 | i | 3
Cc1c(C)c2ccc(OCC(=O)N3CCN(c4ccc(F)cc4)CC3)c(C)c2oc1=O | 2 | 3 | 0 | -15 | 3 | -1 | i | 4
CN(Cc1cnn(-c2ccccc2)c1)C(=O)c1ccc(S(=O)(=O)NCc2ccco2)cc1 | . | 2 | -7 | 1 | 11 | . | . | .
COc1cc(-c2c(-c3cc(OC)c(OC)c(OC)c3)noc2C)ccc1F | 58 | . | . | . | 68* | 2 | i | 6
COc1cc(/C=C/CO)cc(OC)c1O[C@@H]1O[C@H](CO)[C@@H](O)[C@H](O)[C@H]1O | 6 | 1 | 5 | -22 | 8 | -4 | i | -4
COc1ccc(C2=CN3CCCCC3CC2=O)cc1OC (stereo unspecified) | 16 | 1 | 0 | -6 | -41 | . | . | .
O=C(c1cccc(C(=O)N2CCN(Cc3ccccc3)CC2)c1)N1CCN(Cc2ccccc2)CC1 | -7 | -5 | -20 | 0 | . | -7 | i | -7
CC(C)(C)C(=O)Nc1sc2c(c1C#N)CCC2 | 7 | 0 | 2 | . | -2 | 5 | i | 15
Cc1ccc(NC(=O)c2cc(-c3ccc(F)cc3)on2)cc1C | 0 | 3 | 0 | 0 | 1 | -6 | i | -7
c1ccc(-c2oc3ncnc(NCCCN4CCOCC4)c3c2-c2ccccc2)cc1 | 25 | -8 | -9 | -7 | 23 | -7 | i | -8
O=C1N/C(=N\S(=O)(=O)c2ccccc2)S/C1=C\c1cc([N+](=O)[O-])ccc1O | 0 | -66 | 5 | -7 | -3 | 46 | i | 31
CCCN1C(=O)SC(CC(=O)Nc2ccc(C)cc2)C1=O (stereo unspecified) | -4 | 1 | 4 | -12 | . | -4 | i | -18
Cc1ccc(C(=O)Nc2ccccc2C(=O)NC2CCCCC2)cc1S(=O)(=O)N1CCOCC1 | -15 | -1 | -1 | -4 | . | -8 | i | -1
CCOC(=O)c1c(N)nn(C(=O)c2ccccc2F)c1-c1ccc(OC)cc1 | 2 | 2 | -1 | . | -19 | -7 | i | -6
O=C(COC(=O)CCc1nc2ccccc2c(=O)[nH]1)Nc1ccc(OC(F)(F)F)cc1 | . | 4 | 5 | -13 | -15 | . | . | .
Cn1cccc1CC(=O)NNC(=S)Nc1ccccc1Cl | -17 | 1 | 2 | -38 | 1 | 64 | i | 2 | eIF4H FP inh retest=-10;PABP FP inh retest=-6
CC(=O)c1c(C)[nH]c(C(=O)CN2CCN(S(=O)(=O)c3ccccc3F)CC2)c1C | 3 | -3 | -10 | 0 | 0 | . | . | .
O=C(Nc1c2c(nn1-c1ccc(F)cc1)CS(=O)C2)C12CC3CC(CC(C3)C1)C2 (stereo unspecified) | -19 | -2 | -1 | -3 | . | -3 | i | -5
CC(C)(C)N(Cc1ccccc1)C(=O)COC(=O)C1CCN(c2ccc(C(F)(F)F)cn2)CC1 | -4 | -5 | -13 | -10 | . | . | . | .
CCS(=O)(=O)Nc1ccccc1C(N)=O | -1 | 3 | 5 | . | 15 | 2 | i | -3
C=C(C)C1Cc2c(C)nn(-c3nc(C)cc(C)n3)c2C1 (stereo unspecified) | -20 | -4 | -7 | -29 | . | -5 | i | -2
C/C(=N\NC(=O)C(C)Sc1ccccc1)C(C)(C)C (stereo unspecified) | -10 | -4 | -6 | -17 | 5 | 4 | . | -1
CN1CC[n+]2c(CN3C(=O)c4ccccc4C3=O)csc21 | -13 | -4 | 1 | -4 | . | 0 | i | 66 | eIF4H FP inh retest=7;PABP FP inh retest=-4
COc1ccc(CCn2c(NN)nc3c2c(=O)[nH]c(=O)n3C)cc1 | 30 | 0 | -13 | -4 | -22 | -3 | i | 2
CC(=O)Nc1ccc(N=Cc2c(O)c3ccccc3oc2=O)cc1 | 17 | -12 | -4 | -14 | -21 | -1 | i | 2
CCC(=O)NC(Nc1ccccn1)(C(=O)OC)C(F)(F)F (stereo unspecified) | -20 | -1 | -1 | 1 | -27 | 4 | i | -2
CCCCC/S(CC1CC1(Cl)Cl)=N\S(=O)(=O)c1ccc(C)cc1 (stereo unspecified) | 5 | -5 | -3 | . | 12 | 4 | i | -10
Cc1ccc(S(=O)(=O)NCCC(=O)NC2CCCCC2C)cc1 (stereo unspecified) | -4 | 6 | 2 | 0 | . | . | . | .

4 compounds out of the list, arranged by heavy-atom count, largest number first:
SMILES | CSC inhib | MT1-MMP act inh | MT1-MMP act inh RFP | Yeast UUG start | Env fusion inh | eIF4H FP inh | Rce1 inh | PABP FP inh | others
CCCCC/S(CC1CC1(Cl)Cl)=N\S(=O)(=O)c1ccc(C)cc1 (stereo unspecified) | 5 | -5 | -3 | . | 12 | 4 | i | -10
CCC(=O)NC(Nc1ccccn1)(C(=O)OC)C(F)(F)F (stereo unspecified) | -20 | -1 | -1 | 1 | -27 | 4 | i | -2
C=C(C)C1Cc2c(C)nn(-c3nc(C)cc(C)n3)c2C1 (stereo unspecified) | -20 | -4 | -7 | -29 | . | -5 | i | -2
CCS(=O)(=O)Nc1ccccc1C(N)=O | -1 | 3 | 5 | . | 15 | 2 | i | -3

Next section:
SMILES | CSC inhib | MT1-MMP act inh | MT1-MMP act inh RFP | Yeast UUG start | Env fusion inh | eIF4H FP inh | Rce1 inh | PABP FP inh | others
O=[N+]([O-])c1ccc(COc2ccccc2CN2CCCC2)cc1 | . | 1 | 2 | -9 | -4 | . | . | .
O=c1cc(-c2ccccc2)n(S(=O)(=O)c2ccc3ccccc3c2)o1 | 3 | -7 | 3 | -14 | . | . | i | .
Cc1[nH]c2ccccc2c1C(=O)CSC(=S)N1CCCCC1 | -8 | 0 | -8 | . | -93 | -10 | i | -8
Cc1ccccc1NC(=O)CN(c1ccc(F)cc1)S(C)(=O)=O | -3 | -1 | 5 | -16 | -43 | -4 | i | -3
Cc1ccc(-c2sc(C(=O)NN)c(C)c2C#N)cc1 | 17 | 0 | 2 | . | -3 | -3 | i | -12
CC1=C(C(=O)OCc2ccccc2)C(c2ccc(-c3ccccc3)cc2)NC(=O)N1CCCC(=O)O (stereo unspecified) | 4 | . | . | . | 3 | . | + | .
O=C(COC(=O)C1=Cc2ccccc2OC1)NCc1ccccc1 | -15 | -1 | 3 | -10 | -1 | . | i | .
Cc1cc(C(=O)Nc2nc3c(s2)CCCC3)no1 | -15 | -1 | -3 | -45 | -140 | -4 | i | -5
Cc1cc(SCc2ccccc2F)nc(=O)[nH]1 | -13 | -2 | 4 | 6 | -21 | 21 | i | 1
CN(C)S(=O)(=O)c1ccc(C(=O)OCc2nnc(-c3ccccc3)o2)cc1 | -6 | -1 | 6 | -8 | 3 | -10 | i | 6
